# KCNQ2 inh – KCNQ2 potassium channel inhibitors, primary screen, cell-based, CHO-K1, FluxOR thallium flux, B-score (AID 2156); Potassium voltage-gated channel subfamily KQT member 2 (Rattus norvegicus), O88943; 20 min; hits give low values; only compounds with negative scores are shown here; some inactives read as strong as hits; B-score at 10 µM; 1.1% of 310,000 active;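 active = fluorescence ratio B-score at most minus 3 library SDs, with starting brightness B-score within 2 library SDs, cut at about -5.5 in these data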
# Target sequence (O88943 whole entry, looked up): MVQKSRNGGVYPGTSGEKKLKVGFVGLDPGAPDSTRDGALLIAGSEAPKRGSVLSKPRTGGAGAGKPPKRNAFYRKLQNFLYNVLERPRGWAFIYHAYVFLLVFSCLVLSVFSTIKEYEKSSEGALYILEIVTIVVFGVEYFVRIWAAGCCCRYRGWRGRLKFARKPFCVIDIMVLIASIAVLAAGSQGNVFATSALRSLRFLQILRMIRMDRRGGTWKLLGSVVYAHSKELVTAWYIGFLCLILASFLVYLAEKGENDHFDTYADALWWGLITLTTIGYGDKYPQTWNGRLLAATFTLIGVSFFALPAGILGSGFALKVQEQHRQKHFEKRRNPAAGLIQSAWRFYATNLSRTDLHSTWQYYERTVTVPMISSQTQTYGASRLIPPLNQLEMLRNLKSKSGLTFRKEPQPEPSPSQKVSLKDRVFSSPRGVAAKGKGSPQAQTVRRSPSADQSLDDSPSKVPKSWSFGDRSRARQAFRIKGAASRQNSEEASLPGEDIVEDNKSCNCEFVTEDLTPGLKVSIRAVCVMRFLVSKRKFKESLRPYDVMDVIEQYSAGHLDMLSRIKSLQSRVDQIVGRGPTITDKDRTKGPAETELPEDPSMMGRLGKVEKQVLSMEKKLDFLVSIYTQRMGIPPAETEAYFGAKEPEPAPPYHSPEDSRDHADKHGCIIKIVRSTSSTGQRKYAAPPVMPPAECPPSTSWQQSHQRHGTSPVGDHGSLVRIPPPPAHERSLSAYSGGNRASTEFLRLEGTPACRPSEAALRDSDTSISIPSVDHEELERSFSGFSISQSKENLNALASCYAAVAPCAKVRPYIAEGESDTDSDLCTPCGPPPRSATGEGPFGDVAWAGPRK
# KCNQ2 inh baseline – recorded beside KCNQ2 inh, whose call it bears; B-score; measured here: initial fluorescence intensity artifact check;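 brightness before thallium and not channel activity; 0 = typical well and far values either way flag optical interference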
# An asterisk follows results filed as active; i = inactive.
SMILES,KCNQ2 inh,KCNQ2 inh baseline
Cn1cccc1Cc1nnc(SCC(=O)Nc2ccccc2F)n1CCc1ccccc1,i,2.5
CCc1ccc(N(CC(=O)NC2CCCCC2)C(=O)CNC(=O)c2ccco2)cc1,i,-0.01
COc1cc(C(=O)OCC(=O)c2c(N)n(C)c(=O)n(C)c2=O)ccc1OCCC(C)C,i,0.15
O=S(=O)(N/N=C/c1ccc(OC2CSC2)cc1)c1ccccc1,i,0.38
CCCCC(=O)NNC(=S)NC(=O)c1ccc(C)cc1,i,-0.92
CCCCNC(=O)CSc1nc2ccc(C)cc2[nH]1,i,1.4
O=C1c2ccccc2C(Nc2ccc(Cl)cn2)N1Cc1ccccc1 (stereo not given),-6.5*,0.91*
COC(=O)c1ccc(N2CCCCC2)c(NS(=O)(=O)c2ccc(C)cc2)c1,i,-0.71
COC(=O)C(C)Oc1ccc(Cc2ncc(C(F)(F)F)cc2Cl)cc1 (stereo not given),i,-0.1
CCOc1ccc(C2NC(=O)NC(C)=C2C(=O)OCc2ccccc2)cc1 (stereo not given),i,0.6
CCN(C(=O)CCN1C(=O)c2ccccc2C1=O)C1CCCCC1,i,-1.4
CCC(=O)N1CCc2cc(S(=O)(=O)NCCC(=O)NCc3ccccc3Cl)ccc21,i,-1
CCOc1ccc(C(=O)N(CN2CCCC2=O)c2ccc(C)cc2)cc1,i,0.99
Cn1c(=O)c2cc(S(=O)(=O)NC(Cc3ccccc3)C(=O)NCC3CCCO3)ccc2n(C)c1=O (stereo not given),i,-2.5
COc1ccc(-c2nc(C#N)c(NCc3ccccc3Cl)o2)cc1,i,0.62
O=C(CSc1nnc(-c2ccco2)o1)NC1CCCCC1,i,0.11
CCN(CC)c1ccc(/C=N/N2CCN(Cc3ccccc3Cl)CC2)c(O)c1,i,1.4
CC1CCCN(S(=O)(=O)c2ccc(C(=O)Nc3nnc(C4CC4)o3)cc2)C1 (stereo not given),i,0.78
Cc1cccc(Oc2ccc(Cl)cc2N)c1,i,1.2
Fc1ccccc1C(c1nnnn1C1CCCC1)N1CCN(Cc2ccccc2)CC1 (stereo not given),i,0.55
CCCCCCn1cc(C(=O)OCC)c(=O)c2cc(F)c(F)cc21,i,0.74
N/C(=N\OC(=O)c1ccc(Cl)c(Cl)c1)c1cccc(CSc2ccccn2)c1,i,2.5
CCCC(=O)N1CC(=O)Nc2ccc(Br)cc2C1c1ccc(F)cc1 (stereo not given),i,1.2
Cc1ccc(S(=O)(=O)N2CCc3ccccc3C2CC(=O)O)cc1 (stereo not given),i,0.18
Cn1nnnc1SCC(=O)N(C1CCCCC1)C1CCS(=O)(=O)C1 (stereo not given),i,1.1

# Next compounds follow.
SMILES,KCNQ2 inh,KCNQ2 inh baseline
CC(C)n1c(NCc2ccc(Cl)cc2)nc2ccccc21,i,0.88
COc1ccc(NC(=O)CCNS(=O)(=O)c2ccc(NC(C)=O)cc2)cc1Cl,i,-0.53
NC(=O)CC(NC(=O)c1ccccc1)c1ccc(N2CCC(Br)CC2)c([N+](=O)[O-])c1 (stereo not given),i,0.44
CC1CCC(NC(=O)C(NS(=O)(=O)c2cccc3nsnc23)C(C)C)CC1 (stereo not given),i,2.1
N#Cc1cnc(NN)nc1,i,0.34
Cc1cc(Nc2ccccc2)cc(=O)n1C,i,3
Cc1ccc(NC(=O)CN(CCc2ccccc2)S(C)(=O)=O)cc1,i,1.5
Oc1cccc(/C=N/Nc2ccc(Cl)nn2)c1,i,0.02
COc1ccc(C(OC(=O)c2ccco2)C(=O)NCc2ccco2)cc1 (stereo not given),i,0.73
COc1ccc(CN2C(=O)c3ccccc3C2C(=O)NCc2cccnc2)c(OC)c1 (stereo not given),i,-1.6
Cc1nc2ccccc2c(N)c1C(=O)/C=C/c1ccccc1,i,-0.04
COc1ccc(CCNC(=O)C2CCN(S(=O)(=O)N3CCC4(CC3)OCCO4)CC2)cc1OC,i,0.34
Cc1ccccc1C(=O)NNC(=S)NC(=O)c1cccs1,i,-0.09
CCCC1O[C@@H]2C[C@H]3[C@@H]4CCC5=CC(=O)C=C[C@]5(C)[C@H]4[C@@H](O)C[C@]3(C)[C@]2(C(=O)CO)O1 (stereo not given in full),i,-0.8
COC(=O)C1=NNC2(c3ccc(Cl)cc3)C(=O)N(c3ccc(Cl)cc3)C(=O)C12 (stereo not given),i,0.06
CC1(c2ccc([N+](=O)[O-])cc2)Nc2ccccc2S1 (stereo not given),i,2.4
CCOC(=O)c1ccccc1NC(=O)CN(c1ccc(OCC)cc1)S(C)(=O)=O,i,0.99
Cc1occc1-c1nc(-c2ccccn2)no1,i,1.9
N#Cc1nc(Cc2ccccc2)oc1N1CCN(c2ccccc2)CC1,i,-0.98
CC(C)NC(C(=O)Nc1cc(Cl)cc(Cl)c1)c1ccccc1 (stereo not given),-8.1*,0.04*
Cc1nc2cc(NC(=O)N3CCCC3)ccc2n1C,i,0.78
COc1ccccc1C(=O)Nc1nnc(CCc2ccccc2)s1,i,0.02
CCCCCCN=CC1=C(O)CC(C)(C)CC1=O,i,1.4
O=C(Nc1ccc(Cl)cc1)N1CCN(C(=O)C2CCCO2)CC1 (stereo not given),i,0.66
COc1ccc(CN(C)Cc2c(O)ccc3ccccc23)cc1,i,-0.06

# Exported with values under each structure: 15 of the compounds above.
# Value order – KCNQ2 inh | KCNQ2 inh baseline
Cc1nc2ccccc2c(N)c1C(=O)/C=C/c1ccccc1
 : i | -0.04
COc1ccc(CCNC(=O)C2CCN(S(=O)(=O)N3CCC4(CC3)OCCO4)CC2)cc1OC
 : i | 0.34
Cc1ccccc1C(=O)NNC(=S)NC(=O)c1cccs1
 : i | -0.09
CCCC1O[C@@H]2C[C@H]3[C@@H]4CCC5=CC(=O)C=C[C@]5(C)[C@H]4[C@@H](O)C[C@]3(C)[C@]2(C(=O)CO)O1 (stereo not given in full)
 : i | -0.8
COC(=O)C1=NNC2(c3ccc(Cl)cc3)C(=O)N(c3ccc(Cl)cc3)C(=O)C12 (stereo not given)
 : i | 0.06
CC1(c2ccc([N+](=O)[O-])cc2)Nc2ccccc2S1 (stereo not given)
 : i | 2.4
CCOC(=O)c1ccccc1NC(=O)CN(c1ccc(OCC)cc1)S(C)(=O)=O
 : i | 0.99
Cc1occc1-c1nc(-c2ccccn2)no1
 : i | 1.9
N#Cc1nc(Cc2ccccc2)oc1N1CCN(c2ccccc2)CC1
 : i | -0.98
CC(C)NC(C(=O)Nc1cc(Cl)cc(Cl)c1)c1ccccc1 (stereo not given)
 : -8.1* | 0.04*
Cc1nc2cc(NC(=O)N3CCCC3)ccc2n1C
 : i | 0.78
COc1ccccc1C(=O)Nc1nnc(CCc2ccccc2)s1
 : i | 0.02
CCCCCCN=CC1=C(O)CC(C)(C)CC1=O
 : i | 1.4
O=C(Nc1ccc(Cl)cc1)N1CCN(C(=O)C2CCCO2)CC1 (stereo not given)
 : i | 0.66
COc1ccc(CN(C)Cc2c(O)ccc3ccccc23)cc1
 : i | -0.06

# The listing continues.
SMILES,KCNQ2 inh,KCNQ2 inh baseline
O=C(CNC(=O)c1ccccc1)OCc1cccc([N+](=O)[O-])c1,i,-0.65
CC(C)(C)NC(=O)NC(=O)CN1CCN(S(=O)(=O)c2ccccc2)CC1,i,1.6
C[C@@H](NC(=O)c1nc[nH]c1C(=O)NCC(=O)OCc1ccccc1)c1ccccc1,i,-1.2
CCOc1cc(NC(=O)c2ccccn2)c(OCC)cc1NC(=O)CC(C)C,i,2.5
COC(=O)c1ccc(NC(=O)CSC2=Nc3ccccc3C3CC=NN23)cc1 (stereo not given),i,-0.1
CCCn1c(SCC(=O)NCc2ccco2)nnc1-c1ccncc1,i,0.51
CC(NCc1ccncc1)C12CC3CC(CC(C3)C1)C2 (stereo not given),i,3.2
O=S1(=O)CCO[C@H]2Cc3ccccc3[C@H]2N1Cc1ccc(Cl)cc1,i,0.56
O=C(c1cccc(S(=O)(=O)Nc2ccc(Br)cc2)c1)N1CCCC1,i,0.24
CC1(C)CC2CC(C)(CN2c2ncnc3ccc(Br)cc23)C1 (stereo not given),i,-1.1
Cc1ccc(-c2nc3ncccc3o2)cc1NC(=O)Cc1ccc(Cl)cc1,i,1
CCOc1ccc(S(=O)(=O)NCC2CCCO2)cc1 (stereo not given),i,0.01
CC1(C)CC(=O)C2=C(C1)N(Cc1ccco1)C(=O)C2(O)C(F)(F)F (stereo not given),i,-0.2
Cc1nc2c(oc3ccc(Cl)cc32)c(=O)[nH]1,i,1.6
Cc1ccc(NC(=O)CCS(=O)(=O)c2ccc(Br)cc2)nc1,i,0.27
C=CCNc1nnc(SC2CC(=O)N(c3ccc(OC)cc3)C2=O)s1 (stereo not given),i,0.11
Cc1nn(Cc2ccc([N+](=O)[O-])cc2)c(=O)n1-c1c(F)cccc1F,i,0.23
O=C(NCC1CCCN(Cc2ccccc2F)C1)c1cccc(C(F)(F)F)c1 (stereo not given),i,0.78
Cc1ccc(-c2cc3cccc[n+]3cc2-c2ccc(C)cc2)cc1,i,0.03
Cn1nnc(NC(=S)NC(=O)c2cccc3c(Br)cccc23)n1,i,3.1
O=C(Cn1ncc2c(=O)oc3ccccc3c21)NCc1cccnc1,i,2.5
C=CCn1cc(CN2CCC(C(=O)Nc3cccc(-c4cccc(F)c4)c3)CC2)c(C)n1,i,-1.6
CCC1CCCCN1C(=O)Cn1c(C(=O)OC)cc2ccsc21 (stereo not given),i,0.29
CCCOc1ccc(-c2cnc(SCC(N)=O)nc2N)cc1,i,0.42
COc1ccc(CNC(=O)[C@H](C)NC(=O)C2CC(=O)N(c3ccc(OC)cc3)C2)cc1 (stereo not given in full),i,2.5

# Two entries from above, reformatted.
# Each structure is followed by: KCNQ2 inh | KCNQ2 inh baseline
> C=CCn1cc(CN2CCC(C(=O)Nc3cccc(-c4cccc(F)c4)c3)CC2)c(C)n1
  i | -1.6
> CC1(C)CC(=O)C2=C(C1)N(Cc1ccco1)C(=O)C2(O)C(F)(F)F (stereo not given)
  i | -0.2

# Continuation.
SMILES,KCNQ2 inh,KCNQ2 inh baseline
COc1ccccc1/C=C1\SC(=S)N(N2C(=O)CCCC2=O)C1=O,i,-1.2
C=CCN=C1CCCc2c1[nH]c1ccc(C)cc21,i,0.47
CCC(=O)Nc1nc(CC(=O)Nc2ccccc2)cs1,i,0.05
Cc1cc(C)cc(C(=O)NCC(=O)N2CCN(C(c3ccccc3)c3ccccc3)CC2)c1,i,-0.01
COc1ccc(/C=C/C(=O)c2c(O)c(OC)c3occc3c2OC)cc1,i,-0.05
CC(C(=O)c1ccccc1)n1cnc2ccccc2c1=O (stereo not given),i,0.05
O=C(O)/C=C\C(=O)N1CCc2ccccc21,i,-0.15
NS(=O)(=O)c1ccc(CCNC(=O)/C=C/c2ccc([N+](=O)[O-])cc2)cc1,i,1.1
O=C(Nc1ccn(-c2ccccc2)n1)c1ccc(Cl)cc1,i,2.8
Cc1ccc(C(=O)NCc2ccncc2)cc1S(=O)(=O)Nc1cccc(C)c1C,i,1.1
COc1ccc(C(Nc2ccccn2)c2oc(CO)cc(=O)c2O)cc1 (stereo not given),i,0.71
O=C(N/N=C/c1ccc(N2CCOCC2)cc1)C1CC1,i,0.56
COc1ccc(N2C(=O)C3C4C=CC(C5CC45)C3C2=O)c([N+](=O)[O-])c1 (stereo not given),i,1.5
CCc1cc2c(=O)c(-c3cnn(-c4ccccc4)c3)coc2c(CN2CCOCC2)c1O,i,0.9
N#CC1=C(N)OC2=C(C(=O)CCC2)C1C1C=CCCC1 (stereo not given),i,-0.12
S=C(NCCCN1CCOCC1)Nc1ccc(Cl)cc1Cl,i,0.61
Cc1ccccc1C(=O)NC1CCN(Cc2nnnn2Cc2ccc(F)cc2)CC1,i,1.9
N/C(=N\c1nc2c(c(=O)[nH]1)CCCC2)Nc1ccccc1,i,0.02
CCOC(=O)c1ccc(NC(=O)CN(Cc2ccc(Cl)cc2)S(C)(=O)=O)cc1,i,0.21
COc1cccc(-c2onc3ccc(C4(C)OCCO4)cc23)c1,i,0.4
COc1ccc(S(=O)(=O)NC(C)C(=O)Nc2cccc([N+](=O)[O-])c2)cc1 (stereo not given),i,-0.71
CC(C)COc1nc2ccccc2nc1C(C#N)C(=O)NC1CCCCC1 (stereo not given),i,-0.84
Cc1onc(-c2ccccc2)c1C(=O)N/N=C/c1cc(Br)c(Br)o1,i,0.24
O=C(CN(C(=O)c1ccc(Cl)cc1)C1CCCCC1)Nc1ccc(Cl)c([N+](=O)[O-])c1,i,-4.9
Cc1cccc(OCCSc2nc3ccccc3n2CCC(=O)O)c1,i,1.1

# Later entries:
SMILES,KCNQ2 inh,KCNQ2 inh baseline
CCN(Cc1ccccc1)C(=O)COC(=O)CNS(=O)(=O)c1ccc(C)cc1,i,-1.3
CCCCC(=O)Nc1cccc(-c2nn3c(C)nnc3s2)c1,i,-0.74
COc1ccccc1CC(=O)NN1C(=O)c2ccccc2C1=O,i,-0.58
C=CCn1c(SCCOc2ccc(OC)cc2)nnc1C(NC(=O)c1ccc(OC)cc1)C(C)C (stereo not given),i,-0.99
Cc1cc(C)cc(C(=O)N(CCc2ccccc2)C2CC3CCC(C2)N3C)c1 (stereo not given),i,-0.25
O=c1cc[nH]c2cc(Cl)ccc12,i,0.29
O=C(c1cc2cc(Cl)ccc2[nH]1)N1CCN(c2ccc(F)cc2)CC1,i,-1
COc1cc2c(cc1NC(=O)c1cccc([N+](=O)[O-])c1)oc1ccccc12,i,2
Cc1ccc(N(C)S(=O)(=O)c2cccc(C(=O)NCC(c3cccs3)N3CCOCC3)c2)cc1 (stereo not given),-6.8*,0.05*
O=C(c1ccc2nc(N3CCOCC3)sc2c1)N1CCN(c2ccc(Cl)cc2)CC1,i,0.69
COc1ccc2nc(-c3ccccc3)[nH]c2c1,i,0.66
Cc1nnc(N(CCC#N)CCC#N)s1,i,-0.89
O=C(NC12CC3CC(CC(C3)C1)C2)N1CCN(C(=O)C2CCCO2)CC1 (stereo not given),i,-0.02
Cc1ccc(S(=O)(=O)N/N=C2\C(=O)C3(C)CCC2C3(C)C)cc1 (stereo not given),i,0.08
O=C(NC1CCCC1)c1ccc2c(c1)N(Cc1ccc(F)cc1)CCS2,-6.4*,-0.54*
CCCc1nc2c(C)cc(-c3nc4ccccc4n3C)cc2n1Cc1ccc(-c2ccccc2C(=O)O)cc1,i,0.38
Cc1nnc(N2C(=O)C(O)=C(C(=O)c3ccco3)C2c2cccc([N+](=O)[O-])c2)s1 (stereo not given),i,0.54

# Screening results from PubChem.

# Not all compounds are listed; rates above refer to the full screens.
